# eIF4H FP inh: inhibitors of RNA binding by human eIF4H | Q15056 | eIF4H fluorescence polarization binding assay | inhibition, % at 35 µM | hit rate 0.94% among 290,000 | AID 2012;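 active = 50% or more with normal probe brightness, or confirmed in later tests; about a fifth of its hits are not listed in these tables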;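 note: calls also rest on retests at 20 µM and on dose response follow-up; 0% = protein and probe with vehicle and 100% = probe without protein; strong numbers were not always called active; many hits fall short of the cut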
# MT1-MMP act inh: blocks activation of human MT1-MMP | P50281 | HT1080 RFP-PRO-GFP cells, GFP/RFP ratio fluorescence, overnight; percent of plate control window, DMSO zero | GFP/RFP ratio change, % at 20 µM | hit rate 0.061% among 360,000 | AID 651647;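 active = GFP/RFP ratio change of at least 30% with cell ATP level not reduced by more than half and red fluorescence within 50% of control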; note: strong numbers were not always called active
#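 Test system: HT1080 cells expressing an RFP-PRO-GFP fluorescent reporter construct / Compound dosing: single-point 20 µM compound, 1% DMSO / Schedule: cells overnight before dosing, compound overnight, 37 °C, 5% CO2 / Evaluation: GFP/RFP fluorescence ratio / Control set: DMSO and RFP-L50D-GFP cell wells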
# PABP FP inh: blocks human PABP binding to poly(A) RNA. P11940. fluorescence polarization. inhibition, % at 35 µM. hit rate 1% among 290,000;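 active = 50% or more with normal probe brightness, or confirmed in later tests; about a fifth of its hits are not listed in these tables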;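 note: calls also rest on retests at 20 µM and on dose response follow-up; controls were probe without protein and protein plus probe with vehicle; some compounds called inactive have numbers as strong as hits; many hits fall short of the cut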
# Target sequence (P11940 whole entry, looked up): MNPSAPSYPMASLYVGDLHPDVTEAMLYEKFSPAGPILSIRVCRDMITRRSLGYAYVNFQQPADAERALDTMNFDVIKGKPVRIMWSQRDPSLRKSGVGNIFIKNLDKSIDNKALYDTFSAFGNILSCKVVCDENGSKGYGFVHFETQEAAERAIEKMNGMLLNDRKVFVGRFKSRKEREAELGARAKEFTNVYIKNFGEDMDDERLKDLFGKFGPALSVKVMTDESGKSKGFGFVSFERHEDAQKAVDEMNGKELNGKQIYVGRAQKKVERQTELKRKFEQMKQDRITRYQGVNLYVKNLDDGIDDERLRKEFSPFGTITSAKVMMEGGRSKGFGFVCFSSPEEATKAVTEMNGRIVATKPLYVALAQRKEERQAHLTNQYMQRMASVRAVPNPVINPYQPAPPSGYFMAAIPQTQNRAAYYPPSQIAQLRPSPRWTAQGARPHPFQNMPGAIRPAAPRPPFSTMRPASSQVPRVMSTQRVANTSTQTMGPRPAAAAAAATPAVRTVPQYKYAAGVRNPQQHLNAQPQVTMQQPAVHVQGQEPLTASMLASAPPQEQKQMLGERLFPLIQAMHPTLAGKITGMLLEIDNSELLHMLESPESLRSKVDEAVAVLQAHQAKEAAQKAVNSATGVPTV
# Yeast UUG start: alters start codon recognition fidelity in yeast; activity score, % at 18.7 µM; hit rate 0.13% among 350,000; S. cerevisiae UUG-firefly luciferase reporter, luminescence/redox ratio;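 active = replicate mean at a twofold rise or more, about +100% in these data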;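 note: firefly luciferase made from a UUG start codon reports start codon fidelity; reporter light over untreated wells divided by growth signal over untreated wells; some hits fall short of that in this replicate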
# CSC inhib: cancer stem cell inhibition. cancer stem cell-like cells viability, luminescence. inhibition, % at 7.5 µM. hit rate 1.1% among 300,000. AID 2717;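 active = mean at 75% or more and at least half the replicates too; tested in HMLE shEcad cells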;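 note: 0% = median of negative and 100% = median of positive control wells; the first replicate is given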
# HIV Env fusion: HIV envelope-mediated fusion inhibition; hit rate 1.1% among 360,000; inhibition, % at 12.3 µM; HeLa-JRFL Env/CEM21 cell fusion, luciferase; AID 651610;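 active = mean replicate inhibition score of at least 50 and every replicate individually at or above 50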;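 note: 0% = plate neutral controls and 100% = maraviroc near 300 nM; one replicate is shown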
# Rce1 inh: blocks yeast Ras-converting enzyme | Q03530 | yeast membranes, quenched prenylated peptide cleavage fluorescence | calls only | hit rate 0.27% among 290,000;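 active = fall in fluorescence gain of 50% or more versus controls, with final raw signal at or below 3038400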;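 note: plate controls were neutral control wells for no effect and wells lacking membranes for full effect; tested at 10 µM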
# eIF4H FP inh retest: also measured in eIF4H FP inh; calls as there; inhibition, %; compound at 20 µM; confirmation average;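 mean of two retest wells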
# PABP FP inh retest: recorded beside PABP FP inh, whose call it bears; inhibition, %; compound at 20 µM; confirmation repeats;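 mean of two retest wells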
# MT1-MMP act inh RFP: further read-out of MT1-MMP act inh, marked with its call; RFP signal change, %; measured here: RFP expression control read;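 0 = vehicle wells; hits needed this value within 50% of zero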
# Active calls of the source: *; i = inactive; . = no result given; & = joins results of further samples; [ ] = dose if it differs, or a comment. Not all compounds are listed; count on the stated rates, not on these rows.
SMILES,eIF4H FP inh,MT1-MMP act inh,MT1-MMP act inh RFP,PABP FP inh,Yeast UUG start,CSC inhib,HIV Env fusion,Rce1 inh,others
CC(C)NC(=S)N/N=C/c1ccc(N2CCOCC2)cc1,2,2,4,5,9,22,7,i,
CCOC(=O)c1cc([N+](=O)[O-])sc1N,50,2,2,4,-10,-1,6,i,
Cc1ccc2nc(NC(=O)CS(=O)(=O)Cc3ccccc3)sc2c1,-3,-2,-2,-2,7,-10,1,i,
O=C(CSc1n[nH]c(-c2cccnc2)n1)Nc1ccccc1C(F)(F)F,-6,-1,-5,2,-19,-11,-4,.,
COc1ccc(NC(C)=O)cc1NC(=O)CN1CCN(C2c3ccccc3-c3ccccc32)CC1,-16,-10,-6,-24,-12,27,.,i,
CCCOc1ccc(-c2c(C(=O)N/N=C/c3ccc(OCC)cc3)nnn2-c2nonc2N)cc1,1,2,2,4,11,1,5,i,
O=C(Nc1ccc2c(c1)CCC2)c1cc(=O)[nH]c2ccccc12,7,9,8,7,1,-7,4,i,
Cc1nc2c(OCc3ccc(Cl)cc3)cccn2c1N(C)C(=O)CCC1CCCC1,.,4,-11,.,-23,.,21,.,
CCOC(=O)c1c(NC(=O)CSc2ncccn2)sc2c1CC(C)(C)NC2(C)C,-3,-1,1,4,8,-17,7,i,
CN(C(=O)c1ccc(S(=O)(=O)N2CCCC2)cc1)C1CCS(=O)(=O)C1 (stereo unspecified),.,2,2,.,-1,-5,-16,i,
COc1ccc(C(=O)Nc2cc(C(=O)NCCc3ccccc3)ccc2Cl)cc1,-4,13,1,0,-4,3,.,i,
CCCn1c(N)c(C(=O)CSc2nnc3ccccn23)c(=O)[nH]c1=O,.,-2,0,.,.,-5,-8,.,
Cc1ccc(S(=O)(=O)N2CCOCC2)cc1C(=O)NCc1ccco1,2,-2,-2,-4,7,-2,-25,i,
COc1ccc(OC)c(C(=O)CSc2nnc(-c3cccs3)o2)c1,-3,15,-3,0,.,-16,.,i,
CC1(C)CC(=O)C=C(c2ccc(CO)cc2)C1=O,.,1,6,.,-10,.,5,.,
COc1cccc(C(=O)Nc2ccc3[nH]c(=O)[nH]c3c2)c1OC,-6,-2,0,7,-2,-21,60*,i,
CCOC(=O)CC1C(=O)NCCN1Cc1cccc(OC)c1 (stereo unspecified),0,0,1,5,8,-8,-10,i,
CCOc1ccc(S(=O)(=O)NCCC(=O)Nc2nnc(C)s2)cc1,2,-3,2,4,-7,-8,-2,i,
O=C1c2c(O)cc(O)cc2O[C@@]12c1c(cc(O)c3c1O[C@H](c1ccc(O)cc1)[C@@H](O)C3)O[C@@H]2c1ccc(O)cc1,12,7,0,-3,-6,-1,-17,i,
CCCCN1C(=O)N(CCc2ccc(F)cc2)S(=O)(=O)c2cc(C(F)(F)F)ccc21,.,3,-5,.,-13,.,31,.,
O=S(=O)(NC1CC1)c1ccc(F)c(F)c1,-1,-1,0,2,4,.,5,i,
O=C(NNC(=S)Nc1cccc2ccccc12)c1cccc(Br)c1,19,4,3,17,-16,-4,.,i,
O=C(Nc1ccc(O)cc1)c1ccc2c(c1)C(=O)N(Cc1ccco1)C2=O,30,6,2,2,.,0,6,i,
COc1cc(CCCN2C(=S)NC[C@@H]2CC2CCCCC2)cc(OC)c1OC,2,-2,-10,-3,-15,2,-6,i,

# The final seven entries of the part above lead into the next:
SMILES,eIF4H FP inh,MT1-MMP act inh,MT1-MMP act inh RFP,PABP FP inh,Yeast UUG start,CSC inhib,HIV Env fusion,Rce1 inh,others
CCOc1ccc(S(=O)(=O)NCCC(=O)Nc2nnc(C)s2)cc1,2,-3,2,4,-7,-8,-2,i,
O=C1c2c(O)cc(O)cc2O[C@@]12c1c(cc(O)c3c1O[C@H](c1ccc(O)cc1)[C@@H](O)C3)O[C@@H]2c1ccc(O)cc1,12,7,0,-3,-6,-1,-17,i,
CCCCN1C(=O)N(CCc2ccc(F)cc2)S(=O)(=O)c2cc(C(F)(F)F)ccc21,.,3,-5,.,-13,.,31,.,
O=S(=O)(NC1CC1)c1ccc(F)c(F)c1,-1,-1,0,2,4,.,5,i,
O=C(NNC(=S)Nc1cccc2ccccc12)c1cccc(Br)c1,19,4,3,17,-16,-4,.,i,
O=C(Nc1ccc(O)cc1)c1ccc2c(c1)C(=O)N(Cc1ccco1)C2=O,30,6,2,2,.,0,6,i,
COc1cc(CCCN2C(=S)NC[C@@H]2CC2CCCCC2)cc(OC)c1OC,2,-2,-10,-3,-15,2,-6,i,
CC(=O)OC[C@H]1O[C@@H](O/N=C/C[C@@H]2C=C[C@H](OC(C)=O)[C@@H](COC(C)=O)O2)[C@H](OC(C)=O)[C@@H](OC(C)=O)[C@@H]1OC(C)=O,9,.,.,4,.,-2,.,i,
COc1ccccc1OCc1nc2ccccc2[nH]1,7,-4,-5,2,-22,-6,-132,i,
O=C(c1cccs1)N1CCC(N2CCN(c3ccccc3)CC2)CC1,3,-3,-1,4,-14,0,-56,i,
CC(=O)Nc1ccc(/C=N/NC(=O)c2cc3cc(C)ccc3nc2C)cc1,-6,5,2,-10,-23,9,-116,i,
O=C(Nc1ccc(CN2CCOCC2)cc1)c1ccc(F)cc1,-2,1,1,-7,-8,4,-52,i,
CC(C)N(C)c1ncnc2c1ncn2[C@H]1CN(Cc2ccccc2)C[C@@H](CO)O1,.,-1,4,.,-15,.,-3,.,
Cc1ccc(SCCC(=O)Nc2ccccc2Br)cc1,4,-2,1,8,6,-1,-6,i,
CCNC(=S)NNC(=O)c1nn(C)c(C)c1Cl,-5,0,0,-9,.,6,10,i,
Cc1cccc(CN2C(=O)c3ccccc3Sc3ccc(C(=O)NCCCN4CCOCC4)cc32)c1,.,0,0,.,-3,-1,-6,i,
Cc1ccc2nc(SCc3cn4cccnc4n3)[nH]c2c1,-12,9,8,-2,0,-15,-31,i,
Cn1c(=O)[nH]c(=O)c2c1nc(N1CCN(c3ccccc3)CC1)n2CCSc1ncccn1,0,9,7,-3,0,.,.,i,
CN(CC(=O)Nc1cccc(F)c1)CC(=O)Nc1cccc([N+](=O)[O-])c1,-5,3,0,-8,.,2,-1,i,

# The last 2 records of the section before open the next one.
SMILES,eIF4H FP inh,MT1-MMP act inh,MT1-MMP act inh RFP,PABP FP inh,Yeast UUG start,CSC inhib,HIV Env fusion,Rce1 inh,others
Cn1c(=O)[nH]c(=O)c2c1nc(N1CCN(c3ccccc3)CC1)n2CCSc1ncccn1,0,9,7,-3,0,.,.,i,
CN(CC(=O)Nc1cccc(F)c1)CC(=O)Nc1cccc([N+](=O)[O-])c1,-5,3,0,-8,.,2,-1,i,
COc1ccccc1N1CCN(S(=O)(=O)c2c(C(=O)N3CCOCC3)c(C)n(C)c2C)CC1,-1,1,5,-4,2,-13,7,i,
O=C(O)COc1ccccc1/C=N/NC(=O)c1cc2ccccc2cc1O,14,5,6,3,-22,-1,8,i,
CC(C)CC(=O)N1CCN(S(=O)(=O)c2ccc(C3CCCCC3)cc2)CC1,.,-7,-25,.,-20,.,1,.,
Cc1ccsc1CN(C)C(=O)C1CCC(=O)N(CCc2cccc(F)c2)C1 (stereo unspecified),-7,2,4,12,-9,-8,-32,i,
CCOC(=O)c1cc2sccc2n1CC(=O)OC,-8,0,1,3,-12,3,-12,i,
CN1CCN(C(=O)c2ccc(COc3ccc(Cl)cc3Cl)cc2)CC1,-2,-1,-5,-2,-9,47,.,i,
N#Cc1c(-c2c(Cl)cccc2Cl)noc1/C=C/Nc1ccc(C(=O)O)cc1,57,-9,1,-3,.,-16,7,i,eIF4H FP inh retest=-6;PABP FP inh retest=-6
COc1ccc(C2C(C(C)=O)=C(C)Nc3ncnn32)cc1OC (stereo unspecified),-1,-2,-2,-8,-14,-13,15,i,
CC(C)(C)[C@@H]1C=C(C(=O)N2CCN(Cc3ccccc3)CC2)O[C@H](OCCCCO)C1,8,-3,-3,8,-1&-12,-5,5[16.7 µM],i,
Cn1c(=O)c2cc(S(=O)(=O)NC(C(=O)NCc3ccccn3)c3ccccc3)ccc2n(C)c1=O (stereo unspecified),-4,-3,6,2,-21,-4,4,i,
COCCNc1ccc(S(=O)(=O)N2CCCC2)cc1[N+](=O)[O-],-5,0,-1,11,.,1,25,.,
Cc1cc(C)n(-c2ccnc3cc(Cl)ccc23)n1,1,-8,-6,0,-3,-1,11,i,

# The closing five entries of the section above come first, to join the parts.
SMILES,eIF4H FP inh,MT1-MMP act inh,MT1-MMP act inh RFP,PABP FP inh,Yeast UUG start,CSC inhib,HIV Env fusion,Rce1 inh,others
COc1ccc(C2C(C(C)=O)=C(C)Nc3ncnn32)cc1OC (stereo unspecified),-1,-2,-2,-8,-14,-13,15,i,
CC(C)(C)[C@@H]1C=C(C(=O)N2CCN(Cc3ccccc3)CC2)O[C@H](OCCCCO)C1,8,-3,-3,8,-1&-12,-5,5[16.7 µM],i,
Cn1c(=O)c2cc(S(=O)(=O)NC(C(=O)NCc3ccccn3)c3ccccc3)ccc2n(C)c1=O (stereo unspecified),-4,-3,6,2,-21,-4,4,i,
COCCNc1ccc(S(=O)(=O)N2CCCC2)cc1[N+](=O)[O-],-5,0,-1,11,.,1,25,.,
Cc1cc(C)n(-c2ccnc3cc(Cl)ccc23)n1,1,-8,-6,0,-3,-1,11,i,
O=C(COC(=O)C1=COCCO1)Nc1ccccc1OC(F)F,5,0,-2,-4,.,2,16,i,
CCc1cccc(NC(=O)CCC(=O)O)c1,-9,2,1,-8,.,1,18,i,
Cn1c(=O)c2c(nc(CN3CCC(C(N)=O)CC3)n2CCc2ccccc2)n(C)c1=O,-4,4,4,3,-4,-9,-13,i,
C#CCOCCOCCOCCNc1nc(N2CCN(C(=O)[C@H]([C@@H](C)CC)n3cc([C@@H](N)CO)nn3)CC2)nc(N2CCN(C(=O)[C@H](CCCCN)n3cc([C@@H](N)CO)nn3)CC2)n1,.,11,10,.,15,4,-18,.,
CCOC(=O)c1c(C)[nH]c(C(=O)OCc2ccc(C)cc2)c1C,38,-3,4,2,-4,17,-23,i,
CC(C)c1ccc(Nc2ncccc2C#N)cc1,7,0,6,2,-13,.,.,i,
Cc1ccc(C(=O)N/N=C/c2ccc3c(c2)OCO3)o1,-16,2,3,1,.,3,-25,i,
O=C(O)CCCC(=O)Nc1cc([N+](=O)[O-])ccc1O,-2,5,2,-13,.,.,-8,i,
CCCOc1cc(C)c(S(=O)(=O)n2nnc3ccccc32)cc1C,-10,4,6,5,.,-8,-93,i,
CC(NC(=O)c1ccccc1)C(=O)NNC(=O)c1ccccc1Cl (stereo unspecified),.,-1,3,.,-19,-7,-9,.,
CN1CCN(c2ccccc2NC(=O)c2cc(Br)ccc2Cl)CC1,0,-2,1,0,-2,17,.,i,
CCCCn1c(=O)c(CCC(=O)OCC(=O)Nc2ccc(C)c(Cl)c2)nc2ccccc21,1,.,.,9,.,-4,.,i,
CCCCC(CC)C1OCC(CN2CCCC2)O1 (stereo unspecified),6,4,2,-3,-24,-2,-9,i,
Cc1ccc(S(=O)(=O)N2CCOCC2)cc1NC(=O)COC(=O)C1=COCCO1,.,-3,2,.,.,-14,-16,i,
CCOC(=O)CNC(=O)Cn1cnc2c(cnn2-c2ccc(C)cc2)c1=O,-4,0,-2,7,-5,4,5,i,
